Screens deposited in PubChem BioAssay by Broad Institute.
Ecoli rRNA inh: inhibitors of bacterial rRNA selective over humanized ribosomes | E. coli WT GFP vs humanized-ribosome RFP mutants, fluorescence, 24 h; stronger effect = lower value; DMSO median 0, no signal -100 | GFP signal change (wild-type ribosome), % (test concentration not listed) | 350,000 compounds, 1.6% hits;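 active means significant combined selectivity score with lowered wild-type GFP, culture density cut under 30%, mutant RFP and density less affected; inactive means any of these conditions unmet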; further: one replicate is shown; some compounds called inactive have numbers as strong as hits
Ecoli rRNA inh OD600: also measured in Ecoli rRNA inh; calls as there; OD600 change, %; measured here: OD600 growth;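 optical density of the mix in the first replicate; 0 = DMSO median and -100 = no signal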
Ecoli rRNA inh RFP: second read-out of Ecoli rRNA inh, no call of its own (marks repeat the call); RFP signal change, %; measured here: RFP humanized mutant strains;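 first replicate; 0 = DMSO median and -100 = no signal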
* = called active by the depositor; & = joins results of further samples.

Results for O=C(C[C@H]1CC[C@H](NC(=O)c2cccnc2)[C@@H](CO)O1)NCc1ccncn1 ?
Ecoli rRNA inh: 4; Ecoli rRNA inh OD600: 11; Ecoli rRNA inh RFP: -3.3

What do the screens show for `CCC(=O)N1CC2(C1)CN(Cc1cc(F)ccc1F)[C@H](CO)c1c2c2ccc(OC)cc2n1C`?
Ecoli rRNA inh: -4; Ecoli rRNA inh OD600: -5; Ecoli rRNA inh RFP: -2.1

Results for CCCNC(=O)C[C@@H]1C[C@H]2c3cc(NC(=O)C4CCC4)ccc3O[C@H]2[C@@H](CO)O1 ?
Ecoli rRNA inh: 3; Ecoli rRNA inh OD600: 0; Ecoli rRNA inh RFP: -1.0

How did COc1ccccc1C#Cc1ccc2c(c1)O[C@H](CN(C)Cc1ccncc1)[C@H](C)CN([C@H](C)CO)S2(=O)=O do in these assays?
Ecoli rRNA inh: 0; Ecoli rRNA inh OD600: 1; Ecoli rRNA inh RFP: 5.4

What do the screens show for `CN1C[C@@H]2[C@H](c3ccccc31)[C@H](CO)N2S(=O)(=O)c1ccccc1`?
Ecoli rRNA inh: -2; Ecoli rRNA inh OD600: 1; Ecoli rRNA inh RFP: 0.9

Results for Cc1noc(C)c1NC(=O)N(C)C[C@@H]1Oc2ccc(NC(=O)Cn3cnnn3)cc2CC(=O)N([C@@H](C)CO)C[C@H]1C ?
Ecoli rRNA inh: 5; Ecoli rRNA inh OD600: 12; Ecoli rRNA inh RFP: 0.9

What do the screens show for `C[C@H](CO)N1C[C@H](C)[C@H](CN(C)Cc2ccc(C(F)(F)F)cc2)Oc2ccc(NS(=O)(=O)c3cn(C)cn3)cc2C1=O`?
Ecoli rRNA inh: 1; Ecoli rRNA inh OD600: 0; Ecoli rRNA inh RFP: -0.6

Results for C[C@@H]1CN([C@@H](C)CO)C(=O)CCCn2cc(nn2)CO[C@H]1CN(C)S(=O)(=O)c1ccc(C#N)cc1 ?
Ecoli rRNA inh: 16&-2; Ecoli rRNA inh OD600: 4&-8; Ecoli rRNA inh RFP: 1.7&-1.6

What do the screens show for `COc1ccc(-c2cnc3c(NC(C)=O)cc(-c4cccc(C(=O)NCCO)c4)cn23)cc1OC`?
Ecoli rRNA inh: 2; Ecoli rRNA inh OD600: 7; Ecoli rRNA inh RFP: 0.5

How did C[C@@H]1CN([C@H](C)CO)S(=O)(=O)c2ccc(C3=CCCC3)cc2O[C@@H]1CN(C)Cc1ccccc1 do in these assays?
Ecoli rRNA inh: -24; Ecoli rRNA inh OD600: -44; Ecoli rRNA inh RFP: 28

What do the screens show for `C[C@@H]1CN([C@@H](C)CO)S(=O)(=O)c2ccc(-c3ccccc3F)cc2O[C@H]1CN(C)Cc1ccncc1`?
Ecoli rRNA inh: -38; Ecoli rRNA inh OD600: -58; Ecoli rRNA inh RFP: 6.0

Results for Cc1ccc(NC(=O)Nc2ccc3c(c2)C(=O)N(C)[C@H]2CC[C@H](CC(=O)O)O[C@H]2CO3)cc1 ?
Ecoli rRNA inh: 0; Ecoli rRNA inh OD600: 3; Ecoli rRNA inh RFP: 0.9

Results for CNC[C@@H]1Oc2ccc(NC(=O)NC3CCCCC3)cc2CC(=O)N([C@@H](C)CO)C[C@H]1C ?
Ecoli rRNA inh: 0; Ecoli rRNA inh OD600: 7; Ecoli rRNA inh RFP: -2.1

What do the screens show for `Cc1noc(C)c1S(=O)(=O)Nc1ccc2c(c1)C(=O)N([C@@H](C)CO)C[C@@H](C)[C@@H](CN(C)Cc1ccc(Cl)c(Cl)c1)OCCCC[C@@H](C)O2`?
Ecoli rRNA inh: -5; Ecoli rRNA inh OD600: -16; Ecoli rRNA inh RFP: 5.6

Results for O=C([C@H]1[C@H](CO)[C@H]2Cn3c(cccc3=O)[C@H]2N1CC1CCCC1)N1CCCCC1 ?
Ecoli rRNA inh: 1; Ecoli rRNA inh OD600: 5; Ecoli rRNA inh RFP: 0.7

Reprinted from the part before: two entries; new compounds follow.
What do the screens show for `Cc1noc(C)c1S(=O)(=O)Nc1ccc2c(c1)C(=O)N([C@@H](C)CO)C[C@@H](C)[C@@H](CN(C)Cc1ccc(Cl)c(Cl)c1)OCCCC[C@@H](C)O2`?
Ecoli rRNA inh: -5; Ecoli rRNA inh OD600: -16; Ecoli rRNA inh RFP: 5.6

Results for O=C([C@H]1[C@H](CO)[C@H]2Cn3c(cccc3=O)[C@H]2N1CC1CCCC1)N1CCCCC1 ?
Ecoli rRNA inh: 1; Ecoli rRNA inh OD600: 5; Ecoli rRNA inh RFP: 0.7

What do the screens show for `COc1ccc2c3c(n(C)c2c1)[C@@H](CO)N(Cc1ccccc1)CC31CCN(C(=O)c2ccccc2F)CC1`?
Ecoli rRNA inh: 3; Ecoli rRNA inh OD600: 4; Ecoli rRNA inh RFP: -0.3

How did CCC(=O)N1CC2(C1)CN(Cc1cc(F)ccc1F)[C@H](CO)c1[nH]c3cc(OC)ccc3c12 do in these assays?
Ecoli rRNA inh: -4; Ecoli rRNA inh OD600: -6; Ecoli rRNA inh RFP: -2.7

How did C[C@H]1CN([C@@H](C)CO)C(=O)c2cc(C#CCc3ccccc3)cnc2O[C@@H]1CN(C)Cc1cccnc1 do in these assays?
Ecoli rRNA inh: -4; Ecoli rRNA inh OD600: -6; Ecoli rRNA inh RFP: 19

How did O=[N+]([O-])c1ccc(Sc2ccncn2)c([N+](=O)[O-])c1 do in these assays?
Ecoli rRNA inh: 17; Ecoli rRNA inh OD600: 7; Ecoli rRNA inh RFP: 3.6

How did COc1ccc(S(=O)(=O)N(C)C[C@H]2OCCCC[C@@H](C)Oc3ccc(NS(=O)(=O)c4c(C)noc4C)cc3C(=O)N([C@@H](C)CO)C[C@@H]2C)cc1 do in these assays?
Ecoli rRNA inh: 0; Ecoli rRNA inh OD600: -1; Ecoli rRNA inh RFP: 7.5

What do the screens show for `C[C@@H]1CCCCO[C@@H](CN(C)S(=O)(=O)c2ccccc2)[C@@H](C)CN([C@H](C)CO)C(=O)c2cc(NS(=O)(=O)c3ccc(Cl)cc3)ccc2O1`?
Ecoli rRNA inh: -2; Ecoli rRNA inh OD600: -15; Ecoli rRNA inh RFP: -4.0

How did COC(=O)c1cccc(CN2C(=O)C(C)Sc3ccc(C#N)cc32)c1 (stereo unspecified) do in these assays?
Ecoli rRNA inh: -3; Ecoli rRNA inh OD600: 1; Ecoli rRNA inh RFP: 2.1

Results for OC[C@H]1O[C@@H](c2nc(-c3ccccc3Br)no2)[C@H](O)[C@@H](O)[C@H]1O ?
Ecoli rRNA inh: 6; Ecoli rRNA inh OD600: 12; Ecoli rRNA inh RFP: -2.1

What do the screens show for `C[C@@H]1CN([C@H](C)CO)C(=O)c2cc(C#CCN(C)C)cnc2O[C@H]1CN(C)C(=O)CCN1CCCCC1`?
Ecoli rRNA inh: 1; Ecoli rRNA inh OD600: -14; Ecoli rRNA inh RFP: 0.3

How did COCC(=O)Nc1ccc2c(c1)C(=O)N(C)C[C@@H](OC)[C@@H](C)CN(C(=O)c1ccncc1)[C@@H](C)CO2 do in these assays?
Ecoli rRNA inh: 2; Ecoli rRNA inh OD600: -3; Ecoli rRNA inh RFP: -4.1

Results for CCCNC(=O)[C@H]1[C@H](CO)[C@H]2Cn3c(ccc(-c4ccccc4F)c3=O)[C@H]2N1C(=O)C1CCC1 ?
Ecoli rRNA inh: 0; Ecoli rRNA inh OD600: -2; Ecoli rRNA inh RFP: -0.7

What do the screens show for `CC(C)NC(=O)N(C)C[C@@H]1Oc2ccc(NC(=O)Nc3cccc4ccccc34)cc2C(=O)N([C@H](C)CO)C[C@H]1C`?
Ecoli rRNA inh: 3; Ecoli rRNA inh OD600: 5; Ecoli rRNA inh RFP: -1.4

What do the screens show for `CCNC(=O)C[C@H]1CC[C@H]2[C@H](COc3ccc(NC(=O)NC(C)C)cc3C(=O)N2C)O1`?
Ecoli rRNA inh: 3; Ecoli rRNA inh OD600: 5; Ecoli rRNA inh RFP: -1.8

Results for CCN(C[C@@H]1[C@@H](c2ccccc2)[C@H](CO)N1C(C)=O)C(=O)c1ccccn1 ?
Ecoli rRNA inh: 1; Ecoli rRNA inh OD600: 11; Ecoli rRNA inh RFP: -1.3

Results for CC(C)C(=O)Nc1ccc2c(c1)C(=O)N(C)[C@H]1CC[C@H](CC(=O)NCc3ccccc3)O[C@@H]1CO2 ?
Ecoli rRNA inh: 1; Ecoli rRNA inh OD600: 2; Ecoli rRNA inh RFP: -2.4

How did C[C@@H]1CN([C@H](C)CO)C(=O)c2cc(NC(=O)C3CCCCC3)ccc2O[C@H]1CN(C)CC1CCCCC1 do in these assays?
Ecoli rRNA inh: 1; Ecoli rRNA inh OD600: -1; Ecoli rRNA inh RFP: -1.2

How did Cc1ccc2nc(-c3ccco3)c(Cc3cccc(F)c3)n2c1 do in these assays?
Ecoli rRNA inh: -41; Ecoli rRNA inh OD600: -71; Ecoli rRNA inh RFP: -12

Results for Cc1noc(C)c1NC(=O)N[C@@H]1CC[C@@H](CCNC(=O)C2CCOCC2)O[C@H]1CO ?
Ecoli rRNA inh: 4; Ecoli rRNA inh OD600: 4; Ecoli rRNA inh RFP: -3.6

Results for COc1ccc(S(=O)(=O)Nc2ccc3c(c2)C(=O)N([C@@H](C)CO)C[C@@H](C)[C@H](CN(C)C(=O)NC2CCCCC2)OCCCC[C@@H](C)O3)cc1 ?
Ecoli rRNA inh: 1; Ecoli rRNA inh OD600: -7; Ecoli rRNA inh RFP: 1.3

What do the screens show for `COc1cc2c(c(OC)c1OC)C1(CCCCC1)CC2NCC=C(C)C` (stereo unspecified)?
Ecoli rRNA inh: 21; Ecoli rRNA inh OD600: 9; Ecoli rRNA inh RFP: 5.0

What do the screens show for `N#C[C@@H]1[C@@H](c2ccc(C#Cc3cccnc3)cc2)[C@@H](CO)N1C(=O)C1CC1`?
Ecoli rRNA inh: 2; Ecoli rRNA inh OD600: 0; Ecoli rRNA inh RFP: 0.0

What do the screens show for `CCc1nc2c(OCc3ccccc3)cccn2c1N(C)C(=O)C(C)C`?
Ecoli rRNA inh: -1; Ecoli rRNA inh OD600: -10; Ecoli rRNA inh RFP: -3.2

What do the screens show for `C[C@@H]1CN([C@H](C)CO)C(=O)Cc2cc(NS(=O)(=O)c3ccc(F)cc3)ccc2O[C@@H]1CN(C)S(=O)(=O)c1cn(C)cn1`?
Ecoli rRNA inh: 3; Ecoli rRNA inh OD600: 3; Ecoli rRNA inh RFP: -0.4

How did O=C(C1CCOCC1)N1CC(=O)N2[C@H](CO)[C@@H](c3ccc(-c4cccnc4)cc3)[C@@H]2C1 do in these assays?
Ecoli rRNA inh: 1; Ecoli rRNA inh OD600: 0; Ecoli rRNA inh RFP: -2.1

Results for COc1ccc(CN2CC3(CCN(C(C)=O)CC3)c3c(n(C)c4cc(OC)ccc34)[C@H]2CO)cc1 ?
Ecoli rRNA inh: 2; Ecoli rRNA inh OD600: 1; Ecoli rRNA inh RFP: -2.0

How did CO[C@@H]1CN(C)C(=O)c2cc(NC(=O)Nc3cccc(Cl)c3)ccc2OC[C@H](C)N(C)C[C@H]1C do in these assays?
Ecoli rRNA inh: -6; Ecoli rRNA inh OD600: -9; Ecoli rRNA inh RFP: 7.4

What do the screens show for `C[C@@H]1CN([C@H](C)CO)C(=O)c2cc(NC(=O)Nc3ccccc3)ccc2O[C@H]1CN(C)Cc1ccc(C(=O)O)cc1`?
Ecoli rRNA inh: 5; Ecoli rRNA inh OD600: -4; Ecoli rRNA inh RFP: 0.0

How did Cc1noc(C)c1NC(=O)Nc1ccc2c(c1)C(=O)N([C@@H](C)CO)C[C@@H](C)[C@@H](CN(C)C(=O)Nc1ccc3c(c1)OCO3)O2 do in these assays?
Ecoli rRNA inh: -2; Ecoli rRNA inh OD600: 15; Ecoli rRNA inh RFP: 1.3

What do the screens show for `O=C(C[C@H]1CC[C@H](NC(=O)Nc2ccc3c(c2)OCO3)[C@@H](CO)O1)NCc1ccccc1`?
Ecoli rRNA inh: 3; Ecoli rRNA inh OD600: 2; Ecoli rRNA inh RFP: -1.0

What do the screens show for `Cn1c(=O)c2cc(NC(=O)Nc3cccnc3)ccc2n1-c1ccc(C(C)(C)C)cc1`?
Ecoli rRNA inh: -7; Ecoli rRNA inh OD600: -21; Ecoli rRNA inh RFP: 2.6

A draw from above in order of length of the SMILES, rising:
How did CO[C@@H]1CN(C)C(=O)c2cc(NC(=O)Nc3cccc(Cl)c3)ccc2OC[C@H](C)N(C)C[C@H]1C do in these assays?
Ecoli rRNA inh: -6; Ecoli rRNA inh OD600: -9; Ecoli rRNA inh RFP: 7.4

What do the screens show for `C[C@@H]1CN([C@H](C)CO)C(=O)c2cc(NC(=O)Nc3ccccc3)ccc2O[C@H]1CN(C)Cc1ccc(C(=O)O)cc1`?
Ecoli rRNA inh: 5; Ecoli rRNA inh OD600: -4; Ecoli rRNA inh RFP: 0.0

Results for COc1ccc(S(=O)(=O)Nc2ccc3c(c2)C(=O)N([C@@H](C)CO)C[C@@H](C)[C@H](CN(C)C(=O)NC2CCCCC2)OCCCC[C@@H](C)O3)cc1 ?
Ecoli rRNA inh: 1; Ecoli rRNA inh OD600: -7; Ecoli rRNA inh RFP: 1.3

(list continues)
Results for C[C@H]1CN([C@@H](C)CO)C(=O)c2cccc(NC(=O)C3CCOCC3)c2O[C@@H]1CN(C)Cc1ccccc1 ?
Ecoli rRNA inh: -2; Ecoli rRNA inh OD600: 5; Ecoli rRNA inh RFP: 0.3

Results for Cc1noc(C)c1NC(=O)N[C@H]1CC[C@H](CC(=O)N2CCCCC2)O[C@@H]1CO ?
Ecoli rRNA inh: 2; Ecoli rRNA inh OD600: 5; Ecoli rRNA inh RFP: -1.8

How did CO[C@H]1CN(C)C(=O)c2cc(NC(=O)C3CC3)ccc2OC[C@H](C)N(Cc2ccncc2)C[C@H]1C do in these assays?
Ecoli rRNA inh: -4; Ecoli rRNA inh OD600: -8; Ecoli rRNA inh RFP: -1.4

How did COc1ccccc1Cc1c(-c2ccco2)nc2ccc(C)cn12 do in these assays?
Ecoli rRNA inh: 0; Ecoli rRNA inh OD600: 7; Ecoli rRNA inh RFP: 6.6

This is a subset; count on the stated rates, not on these rows.
